Screening results from PubChem BioAssay.
LANA-H2A inh: blockers of LANA interaction with H2A/H2B – biochemical, FP readout, HTS, primary screen; Protein LANA1 (Human herpesvirus 8 type P (isolate GK18)), Q9QR71; cell-free LANA-H2A/H2B peptide, fluorescence polarization; inhibition, % (test concentration not listed); actives 0.6% (n = 320,000); AID 2629, 2010; in the data active = inhibition mostly above about 10%, no sharp cut-off; inactive = mostly below about 6.7%;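 also: stock transfer was 7.5 nL into about 10 µL; 0% = median of vehicle wells and 100% = median of positive control wells; one replicate is shown; the record names a cut of 25% in any replicate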
B2AR ag: beta2AR agonists driving receptor internalization, primary screen, cell-based, FAP fluorogen, flow cytometry. Am2.2-beta2AR cells; reference of the scale not given here. Beta-2 adrenergic receptor (Homo sapiens), P07550. actives 0.43% (n = 340,000). response, % (no concentration beside the values);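 active = response above a set limit, near 3 SD of response in nonfluorescent compounds, cut at about 42% in these data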;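 also: stock transfer was 100 nL into about 11 µL; a reference agonist was the positive control; negative values mostly stem from fluorescent compounds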
Target sequence (P07550 whole entry, looked up): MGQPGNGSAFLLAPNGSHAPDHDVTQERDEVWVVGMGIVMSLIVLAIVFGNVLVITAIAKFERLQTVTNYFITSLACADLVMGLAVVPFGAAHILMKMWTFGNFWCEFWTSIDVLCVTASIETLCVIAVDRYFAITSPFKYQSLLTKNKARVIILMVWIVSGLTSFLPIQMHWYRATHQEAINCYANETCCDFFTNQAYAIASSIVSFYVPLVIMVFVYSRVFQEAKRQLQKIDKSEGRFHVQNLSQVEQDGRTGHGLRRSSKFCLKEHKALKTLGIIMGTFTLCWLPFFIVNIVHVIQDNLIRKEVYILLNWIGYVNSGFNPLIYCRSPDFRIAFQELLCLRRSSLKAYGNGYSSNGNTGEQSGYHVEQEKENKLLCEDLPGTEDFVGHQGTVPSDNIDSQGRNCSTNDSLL
Calb FLC: C. albicans growth inhibition with fluconazole, primary screen, CaCi-2 strain, Alamar Blue fluorescence; growth inhibition, % (no concentration beside the values); AID 1979, 2009; C. albicans CaCi-2 (fluconazole-resistant clinical isolate) + fluconazole, 48 h; actives 0.57% (n = 300,000);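 active = most replicates above 75%; inconclusive = exactly half above 75%; inactive = most below 75%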;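 also: all wells also contain fluconazole at 8 µg/ml as a sub-toxic cotreatment; 0% = median of DMSO wells and 100% = median of geldanamycin control wells; wells of about 8 µL received 7.5 nL stock; the first replicate is given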
UCH37 inh: inhibitors of human UCH37 deubiquitinase, primary screen, biochemical, Ub-AMC cleavage, fluorescence. Ubiquitin carboxyl-terminal hydrolase isozyme L5 (Homo sapiens), Q9Y5K5. purified proteasome/UCH37. inhibition, % (no concentration beside the values). actives 0.33% (n = 330,000). AID 588478, 2011;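 active = mean of two replicates above 20%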;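 also: 0% = compound-free wells with enzyme and 100% = wells lacking proteasome; stock transfer was 100 nL into about 20 µL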
Target sequence (Q9Y5K5 whole entry, looked up): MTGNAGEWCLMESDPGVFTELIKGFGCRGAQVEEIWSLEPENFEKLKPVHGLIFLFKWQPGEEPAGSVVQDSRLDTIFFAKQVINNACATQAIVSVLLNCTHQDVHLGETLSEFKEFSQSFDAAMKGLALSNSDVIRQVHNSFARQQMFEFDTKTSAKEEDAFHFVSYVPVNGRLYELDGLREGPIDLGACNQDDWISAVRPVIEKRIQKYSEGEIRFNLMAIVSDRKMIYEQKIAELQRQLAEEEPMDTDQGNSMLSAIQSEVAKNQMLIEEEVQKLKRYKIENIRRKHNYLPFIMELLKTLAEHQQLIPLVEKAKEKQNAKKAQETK
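Schedule: 30 min plus 25 min, room temperature / Material: human UCH37 within purified proteasomes / Technique: AMC fluorescence intensity at 355/460 nm / Buffer or medium: pH 7.4 Tris-HCl (50 mM) with ovalbumin, ATP-MgCl2, DTT / Controls: wells without proteasome as full block, compound-free enzyme plus substrate as uninhibited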
Bfl-1 A1 inh: caspase 3/7 activation in MEF A1-2A-BIM cells, primary screen, A1 inhibitor project, cell-based, luminescence, HTS. Caspase-Glo 3/7 luminescence, 3 h; percent of clofoctol response, vehicle zero. caspase activation, % (test concentration not listed). actives 0.066% (n = 330,000). AID 2462, 2010;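 active = over half of replicate activation scores above 10%, or exactly half above 10 with the replicate mean above 10; inconclusive = replicate mean below 10 yet half the replicates above 10; inactive = over half of replicates below 10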;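 also: wells of about 30 µL received 50 nL stock; many hits fall short of the cut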
Beta cell apopt: inhibitors of cytokine-induced beta cell apoptosis, primary screen, luminescence; protection from apoptosis, % (no concentration beside the values); INS-1E cytokine-induced death, ATP luminescence, 48 h; percent of positive-control rescue, neutral wells zero; actives 0.8% (n = 300,000);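 active = all replicates at 75% or more, or half of them and the mean; inconclusive = half reach 75% but not the mean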;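 also: 0% = cytokine-treated negative control wells and 100% = positive control rescue; higher means more ATP so stronger rescue from cytokine killing; wells of about 40 µL received 100 nL stock; the first replicate is given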
RanGTP-Imp inh: inhibitors of RanGTP-importin-beta interaction, primary screen, biochemical, FRET, CFP-Ran, YFP-importin-beta, homogeneous. Ran GTPase (GTP-bound) - importin-beta complex. cell-free CFP-Ran/YFP-importin-beta FRET ratio. inhibition, % (test concentration not listed). actives 1.1% (n = 300,000);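 active = most replicates above 15%; inconclusive = exactly half above 15%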;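 also: 0% = DMSO wells and 100% = Ran loaded with GDP instead of GTP; wells of about 40 µL received 100 nL stock; the first replicate is given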
T cruzi repl: inhibitors of intracellular T. cruzi growth, primary screen, luminescence, NIH3T3 host cells | inhibition, % (test concentration not listed) | T. cruzi beta-gal in NIH3T3, 90 h | actives 1.4% (n = 300,000) | AID 1885, 2009;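 active = mean inhibition across valid replicates above about 55%, limit read from the data; inconclusive = mean below that limit but half or more replicates reach it; inactive = mean below it, under half of replicates reach it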;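 also: signal also drops with host cell toxicity which is not excluded here; 0% = plate median of DMSO wells and 100% = zero luminescence signal; higher percent means less beta-gal luminescence so fewer parasites; stock transfer was 50 nL into about 50 µL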
The depositor's hits bear a star; i = inactive; ? = inconclusive; · = not tested or not shown.

SMILES	LANA-H2A inh	B2AR ag	Calb FLC	UCH37 inh	Bfl-1 A1 inh	Beta cell apopt	RanGTP-Imp inh	T cruzi repl
COc1ccc(S(=O)(=O)NC2(C(F)(F)F)NC(=O)N(CCc3ccccc3)C2=O)cc1 (stereo unspecified)	-1.1	3	36	-1.1	-0.3	-1	-1.7	-2
O=C(CN1C(=O)C2CC=CCC2C1=O)Nc1ccc(S(=O)(=O)Nc2nccs2)cc1 (stereo unspecified)	0.0	-4	-7	2.6	0.0	-4	7.5	1
CCCc1cc(C(=O)Nc2ccc(C(=O)c3ccc(C)cc3)cc2)n(C)n1	-1.0	13	20	2.8	0.1	14	2.1	-5
CCOC(=O)c1c(Nc2nc(C)c(C(=O)NC)s2)sc(C)c1C	-1.7	-22	18	-48	-0.3	5	1.5	17
COc1ccc2cc(C(=O)C3CCCN(C(=O)c4ccnn4C)C3)ccc2c1 (stereo unspecified)	-3.3	-7	-1	i	0.2	-2	4.9	7
CCOC(=O)Cn1c(CN(C)Cc2ccccc2)nc2c1c(=O)n(C)c(=O)n2C	-2.3	0	-7	0.7	0.2	-2	?	10
Cc1cccc(N2CCN(C(=O)c3cc(=O)[nH]c4ccccc34)CC2)c1C	-6.6	4	3	2.5	-0.3	0	-1.3	0
O=C(CCc1ccc(S(=O)(=O)NCCc2ccccc2)cc1)NCc1ccco1	-1.8	-2	20	2.2	0.1	-5	0.2	-9
O=C(Nc1ccccc1)c1ccc(=O)n(Cc2ccc(F)c(F)c2)c1	2.3	-7	-6	-0.3	-0.3	6	1.6	-9
CCN(CC)C(=O)c1cn(CCC#N)nc1-c1ccc(F)cc1	i	0	8	-1.9	0.2	0	4.4	-15
CCc1cc(=O)[nH]c(SC/C=C/c2ccccc2)n1	-3.0	6	0	3.0	-0.1	-3	-1.0	-8
N#Cc1c(N)c(C(=O)c2ccccc2)n2c1CCC2	1.7	-3	?	7.0	-0.1	4	?	23
COC(=O)[C@H](CC(C)C)NC(=O)NC1CCCc2ccccc21 (stereo partly specified)	3.6	18	-23	-0.2	0.0	-8	0.1	-13
Cn1c(SCC(=O)Nc2ccc(C(N)=O)cc2)nc2c(c1=O)SCC2	-11	-3	2	5.9	0.3	4	2.5	-22
COc1ccc(CC(=O)OCC(=O)N(C)C2CCS(=O)(=O)C2)cc1OC (stereo unspecified)	-1.1	-14	-3	-0.1	-0.5	4	0.2	-7
COc1ccc(CCNC(=O)C2CCCN2C(=O)Nc2cccc(OC)c2)cc1 (stereo unspecified)	3.7	-6	2	3.6	0.6	-1	7.0	-3
Cc1ccc(NC(=O)N2CCN(Cc3ccc4c(c3)OCO4)CC2)cc1	-6.1	0	-14	4.4	0.1	-3	-2.4	6
COc1ccc(-c2nc3cnccn3c2NCc2ccccc2)cc1SC1CCCCC1	-5.1	-15	24	-100	0.1	10	?	33
O=C(NC1CCN(Cc2ccccc2)CC1)c1cccc(S(=O)(=O)Nc2ccc(F)cc2)c1	-5.9	6	·	6.1	1.5	26	·	·
COC(=O)c1cc(S(=O)(=O)N2CCCC2)c(Cl)cc1Cl	-3.2	0	-2	-0.1	1.0	-2	-1.4	5
CCc1nccn1CCC(=O)NC1CCCc2c1cnn2-c1ccc(F)cc1F (stereo unspecified)	2.2	-7	24	-1.5	0.0	4	?	-12
CC(C)C(=O)N1CCN(c2ccc([N+](=O)[O-])c(NC(C)c3ccccc3)c2)CC1 (stereo unspecified)	-9.2	-1	15	7.4	0.3	13	2.3	-3
CCCN(CC(=O)Nc1ccccc1OC)C(=O)c1ccc2[nH]c3c(c2c1)CC(C)CC3 (stereo unspecified)	1.8	12	·	1.3	0.0	7	·	·
CCOc1ccccc1NC(=O)CSc1nnc(Cc2ccc(OC)cc2)c(=O)n1N	-0.8	-13	2	-0.1	1.8	·	-2.3	6
COc1ccc(S(=O)(=O)Nc2ccc3c(c2)C(=O)N([C@@H](C)CO)C[C@H](C)[C@H](CN(C)CC2CC2)O3)cc1	0.1	3	·	0.9	-1.1	1	·	·

A second format for 4 compounds above:
structure | LANA-H2A inh | B2AR ag | Calb FLC | UCH37 inh | Bfl-1 A1 inh | Beta cell apopt | RanGTP-Imp inh | T cruzi repl
COc1ccc(S(=O)(=O)NC2(C(F)(F)F)NC(=O)N(CCc3ccccc3)C2=O)cc1 (stereo unspecified) | -1.1 | 3 | 36 | -1.1 | -0.3 | -1 | -1.7 | -2
O=C(CN1C(=O)C2CC=CCC2C1=O)Nc1ccc(S(=O)(=O)Nc2nccs2)cc1 (stereo unspecified) | 0.0 | -4 | -7 | 2.6 | 0.0 | -4 | 7.5 | 1
CCCc1cc(C(=O)Nc2ccc(C(=O)c3ccc(C)cc3)cc2)n(C)n1 | -1.0 | 13 | 20 | 2.8 | 0.1 | 14 | 2.1 | -5
CCOC(=O)c1c(Nc2nc(C)c(C(=O)NC)s2)sc(C)c1C | -1.7 | -22 | 18 | -48 | -0.3 | 5 | 1.5 | 17

(further entries)
SMILES	LANA-H2A inh	B2AR ag	Calb FLC	UCH37 inh	Bfl-1 A1 inh	Beta cell apopt	RanGTP-Imp inh	T cruzi repl
Cc1ccc([C@@H]2[C@@H]3C(=O)N(C)C(=O)[C@@H]3[C@]3(Cc4ccccc4)C(=O)N(CCO)CC(=O)N23)o1	-0.1	-2	-1	2.3	1.2	-4	1.6	-15
CCOC(=O)N1CCN(S(=O)(=O)c2ccc(C(=O)N(CCCN(C)C)c3nc4ccc(CC)cc4s3)cc2)CC1	-4.0	25	-6	-1.2	0.0	-9	0.6	37
CN(C)C(CNc1ccc(C(F)(F)F)cc1[N+](=O)[O-])c1ccccc1 (stereo unspecified)	-4.0	-4	25	3.6	1.0	1	-0.1	37
CN(CC(O)COCc1cccs1)C1CCCCC1 (stereo unspecified)	-0.4	7	3	3.5	0.1	0	0.8	-3
O=C(O)C1CCCN1C(=O)Nc1ccc(F)cc1 (stereo unspecified)	-1.8	-8	-3	4.0	0.4	1	1.6	-16
NS(=O)(=O)c1ccc(NC(=S)Nc2ccc(F)c(F)c2)cc1	-5.5	-2	-5	8.2	0.7	-6	-0.4	-18
CC(=O)Nc1ccc(-c2ccnc(-c3ccc(NC(C)=O)cc3)n2)cc1	-2.5	6	-15	2.0	-0.8	-3	-3.1	1
CC(C)(C)c1cc(-c2ccccc2)no1	2.9	-4	-9	1.1	0.2	-5	1.1	2
Cc1nnc(SCC2CCCO2)n1-c1ccccc1 (stereo unspecified)	-2.6	-3	-3	0.1	0.8	0	3.0	-13
CCCCCCCCCCC[C@@H](C[C@@H]1OC(=O)[C@H]1CCCCCC)OC(=O)[C@H](CC(C)C)NC=O	-4.6	3	·	·	-0.3	4	3.8	5
Cc1cc(NC(=O)c2ccc(Cl)cc2)n(-c2ccccc2)n1	0.5	-3	-5	3.9	0.9	·	-2.1	-9
Cc1ccc(OCc2cc(C(=O)NCCc3cccnc3)no2)cc1C	·	7	-2	2.0	·	·	7.8	6
C=CCNC(=O)c1c(Br)cnn1-c1ccc(C)cc1	1.4	3	14	1.1	0.5	-1	?	-16
COc1cc(Cl)c(C)cc1NC(=O)CSCC#N	2.4	3	9	1.6	0.5	-2	-1.6	-9
O=S(=O)(/C=C/c1ccccc1)NC1CCCCCCC1	-3.7	-12	-15	0.4	-0.3	1	-1.3	0
CCc1ccc(N2CN=c3s/c(=C\c4ccccc4)c(=O)n3C2)cc1	0.8	-8	4	·	-0.1	3	3.8	11
O=c1cc(CN2CCN(c3ccc(F)cc3)CC2)nc2sccn12	3.9	-2	·	-3.2	1.9	3	7.0	2
CCCCC(c1nnnn1CC1CCCO1)N1CCN(c2ccccc2)CC1 (stereo unspecified)	1.9	0	-4	3.4	-0.2	-5	5.3	-3
O=C(Cn1ccnc1)c1ccc(O)c(O)c1	1.1	-7	·	1.1	0.8	-6	·	·
COc1ccc(Nc2nc(C)cc(C)c2C(N)=O)c(OC)c1	-7.0	6	1	4.1	-0.4	0	4.9	-1
Oc1ccc(C(=S)N2CCCCC2)cc1Cl	2.4	-1	-9	1.2	0.3	2	4.8	-12
Cc1ccc2nc(C3CCCCC3)[nH]c2c1	0.2	-2	1	6.8	-3.4	-1	-2.3	-7
CCC(C)NC(=O)Cn1cc2c(n1)CCC(C)C2 (stereo unspecified)	0.5	-10	4	1.3	0.0	-7	?	1
Cc1nnsc1C(=O)N/N=C/c1ccc2ccccc2c1O	12	-2	-8	·	-3.5	125*	-15	55*
O=C(CCCCCNC(=O)N1CCn2c1nc1ccccc12)NCc1ccccc1Cl	4.1	-5	1	1.2	1.1	0	?	10

Continued:
SMILES	LANA-H2A inh	B2AR ag	Calb FLC	UCH37 inh	Bfl-1 A1 inh	Beta cell apopt	RanGTP-Imp inh	T cruzi repl
O=C(CCN1C(=O)/C(=C/c2ccc(F)cc2)SC1=S)NCCCn1ccnc1	-4.4	14	-5	9.3	-0.3	-10	3.0	-14
Cc1ccc(-n2nnnc2-c2nc3ccccc3s2)cc1	4.0	-3	-5	2.5	?	8	0.3	1
CCCCOC(=O)CSC1=C(C#N)C(c2cccnc2)C(C(=O)OCC)=C(c2ccccc2)N1 (stereo unspecified)	2.9	-2	-5	0.1	0.0	·	-0.7	43
CCC1CN(C(=O)NCc2cccc(OC)c2)c2ccccc2O1 (stereo unspecified)	3.0	-8	4	-0.8	0.6	-4	-2.1	-4
CC(=O)Nc1ccc(OCC(O)CN2CCN(S(=O)(=O)c3ccc(NC(C)=O)cc3)CC2)cc1 (stereo unspecified)	-4.2	-6	51	2.6	-0.1	-2	1.9	-11
Cn1c(SCC(=O)NC2CC2)nnc1-c1ccccn1	2.3	6	-12	0.1	-0.8	-1	0.2	4
N#Cc1nc(-c2cccs2)oc1NCCc1ccccc1	-2.0	-13	13	-283	1.7	8	-2.1	18
COc1ccccc1-c1ccc(Nc2cccc(C(F)(F)F)c2)nn1	-2.1	-12	-9	-3.1	-1.8	2	3.8	-3
CCOC(=O)N1CCN(S(=O)(=O)c2cc(OCC(N)=O)c(C)cc2Cl)CC1	0.4	-4	8	4.5	0.8	0	4.2	-21
CN(C)S(=O)(=O)c1ccc(N2CCCC2)c(C(=O)OCC(=O)N2CCN(c3ccccc3)CC2)c1	2.2	5	-5	-1.5	-0.3	2	·	24
Clc1ccc(COn2ccnc2)cc1Cl	·	-3	-2	5.9	·	·	0.1	6
C=CCNCCOc1cccc(Br)c1	0.5	-8	0	3.6	-2.2	-2	-1.0	-13
CN(c1ccccc1)S(=O)(=O)c1cccc(C(=O)NC2CCCCC2)c1	2.6	0	·	-0.5	-0.9	0	·	·
Cn1c(SCC(=O)Nc2cccc(F)c2)nc2c(c1=O)SCC2	0.5	-2	1	5.4	0.7	2	?	0
CCOC(=O)c1cc(-c2ccc(Cl)cc2)nc2c1c(C)nn2CCC#N	5.3	-8	-7	-29	-1.0	7	0.5	40

The order is random. Share with any hit: about 4.3%.
